Screens from PubChem.
Sa RN4220 lethal – S. aureus RN4220 growth inhibition; OD600, 16 h; inhibition, % (concentration not given with the values); hit rate 0.33% among 330,000;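 active = z-score of -3 or lower and OD600 up to 0.18 on both plates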;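 note: plate controls were untreated cells for no effect and reference antibiotic for full effect; stock transfer was 100 nL into about 80 µL; one replicate is shown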
BJeLR lethal – kills HRASV12-expressing BJeLR cells. BJeLR (HRASV12) viability, CellTiter-Glo ATP luminescence, 48 h; reference of the scale not given here. inhibition, % (no concentration beside the values). hit rate 0.17% among 300,000;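 active = replicate mean above 50%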;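 note: 50 nL library stock added to about 25 µL; numbers are from one replicate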
Mtb hypoxia inh – reduces hypoxia-regulated biosensor signal in M. tuberculosis; M. tuberculosis hypoxia-regulated fluorescent reporter, fluorescence; fluorescence inhibition, % (concentration not given with the values); hit rate 0.1% among 300,000;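 active = 35 to 45% if threefold the growth effect, above 45% if 1.5-fold the growth effect; inactive = the rest, general growth blockers included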;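 note: wells of about 50 µL received 100 nL stock; 0% = vehicle wells and 100% = reference inhibitor wells; whole bacteria with a GFP reporter of the hypoxia response; strong numbers were not always called active; many hits fall short of the cut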
Autofluor counter – counter-screen for toxin protease inhibitors: compound fluorescence. compound autofluorescence counterscreen, microsphere flow cytometry; stronger effect = higher value. fluorescence intensity (concentration not given with the values). hit rate 3.1% among 360,000;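 active = at least 3 SD above the mean of all compounds, about 16000 in these data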;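 note: 100 nL of 1 mM stock went into each well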
ugtP null kill – growth inhibition of S. aureus ugtP deletion strain | S. aureus RN4220 ugtP deletion, OD600 growth, 16 h; some inactives read as strong as hits | growth inhibition, % (concentration not given with the values) | hit rate 0.54% among 330,000 | AID 1259309;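 active = z-score under -3 and OD600 up to 0.15 on both plates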;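 note: plate controls were untreated wells for no effect and antibiotic for full effect; wells of about 80 µL received 100 nL stock; the first replicate is given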
PrP UTR inh – suppresses PrP 5' UTR mRNA reporter expression. AID 488862. inhibition, % (no concentration beside the values). hit rate 0.35% among 340,000. cell-based PrP 5' UTR mRNA reporter, plate reader;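 active = every replicate at 50% or more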;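 note: 0 = median of the neutral control wells; tested in H4 reporter cells; numbers are from one replicate; inactives centre near -14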
Mtb hypoxia inh growth – recorded beside Mtb hypoxia inh, whose call it bears; growth inhibition, %; measured here: M. tuberculosis growth (absorbance);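 0% = vehicle and 100% = reference antibiotic; read after six days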
* hit, by the source's call; x = not tested or not shown; & = joins results of further samples.

SMILES	Sa RN4220 lethal	BJeLR lethal	Mtb hypoxia inh	Mtb hypoxia inh growth	Autofluor counter	ugtP null kill	PrP UTR inh
COc1cc2[nH]c(=O)n(CCC(=O)N3CCN(c4cc(Cl)ccc4C)CC3)c(=O)c2cc1OC	9.5	3	9	14	3634	14	-12
CN(C)c1ccc(/C=C(\C#N)C(=O)Nc2nc3c(s2)CCN(Cc2ccccc2)C3)cc1	0.4	2	3	3	10915	-17	-13
CC(=O)OCC(OC(C)=O)C(OC(C)=O)C(OC(C)=O)C(=O)Nc1cccc(C)c1 (centres undefined)	2.4	-3	9	12	3375	4	-15
CC(=O)Nc1nonc1C(=O)N1CCC(C)CC1	1.0	-5	5	6	20925*	2	-13
Cc1cc(Cl)ccc1OC(C)C(=O)Nc1cnn(CCCC(=O)O)c1 (centres undefined)	-0.8	-5	13	1	5918	1	-3
C=CCOC(=O)C1=C(C)NC(=S)NC1/C=C/c1ccccc1 (centres undefined)	0.1	-10	-5	8	18190*	-13	7
CC(NCc1ccccc1Cl)C(O)c1ccccc1 (centres undefined)	2.0	-20	0	0	7346	18	-24
COc1nc(NC2CCCCC2)nc(NC(C)(C)C)n1	1.3	-6	-9	-2	6300	-13	-19
O=C(Cn1cc(C(=O)C2CC2)c2ccccc21)NCc1ccccc1	-19	14	2	7	2790	-4	-37
N#C/C(=C(/O)COC(=O)c1cccnc1Cl)c1nc2ccccc2[nH]1	3.1	x	-12	-9	4871	-7	-19
C=CCNc1nc(Cl)nc(NC2CCCCC2)n1	1.5	2	13	4	3932	-4	-13
Fc1ccc(-c2nc(-c3cccs3)[nH]c2-c2ccc(F)cc2)cc1	21	6	-4	-2	2327	8	-77
Cc1cc(C)cc(NC(=O)CSc2nc3ccccc3nc2N2CCCC2)c1	-7.3	-1	13	9	5601	-10	-15
CCN(CC)S(=O)(=O)c1ccc(NC(=S)Nc2ccc(F)cc2)cc1	1.4	14	3	-2	4265	-2	-9
CC1CCCN(C(=O)COC(=O)CNS(=O)(=O)c2ccc3ccccc3c2)C1 (centres undefined)	-0.7	0	-3	-3	x	5	-11
Cc1cnc(SCc2ccc(Cl)cc2Cl)[nH]c1=O	2.8	6	7	-1	3713	-3	-1
COc1cc(C(=O)NNC(=O)CNC(=O)c2ccc(Br)o2)cc(OC)c1OC	6.1	6	-3	-9	4543	15	3
OC(c1ccccn1)C1CCN(Cc2nc(C(c3ccccc3)c3ccccc3)no2)CC1 (centres undefined)	7.2	-2	8	9	2170	9	-12
Cc1ccc(NS(=O)(=O)c2ccc(OCC(=O)NCC3CCCO3)cc2)cc1 (centres undefined)	4.5	-1	4	17	5025	1	-9
Cc1ccnc(SCC(=O)Nc2cccc(S(=O)(=O)N3CCOCC3)c2)n1	0.1	x	5	8	3927	-4	-2
COc1cccc(-c2nc(CS(=O)(=O)CC(=O)NCCc3ccc(OC)cc3OC)c(C)o2)c1	-2.8	3	0	2	5009	1	-11
COc1ccc(-c2cccc(-c3cc(=O)oc4ccc(C(C)(C)C)cc34)c2)cc1	-3.3	x	1	3	3072	5	-4
COc1ccc(Cn2c(-c3ccco3)nc3oc4cc(OC)ccc4c(=O)c3c2=O)cc1	12	4	3	1	4654	-10	-85
COc1ccc([N+](=O)[O-])cc1N(CC(O)CN(CC(C)C)CC(C)C)S(=O)(=O)c1ccccc1 (centres undefined)	2.9	1	4	10	4445	14	-9
Cc1cc(C)nc(NC(=O)Cc2cccs2)n1	4.1	-3	-1	2	3656	7	-11
C=CCNc1oc(-c2ccc(OC)cc2)nc1C#N	-1.9	17	5	9	10052	7	-51
CCN1CCN(C(=O)c2ccc3c(c2)N(Cc2ccc(C)cc2)CCS3)CC1	3.6	-1	-1	-1	5772	-5	13
O=c1c(=Cc2cccc(O)c2)sc2nc(-c3ccccc3)c(-c3ccccc3)n12	1.4	x	18	7	x	6	x
CC1CCCc2sc3ncn(N)c(=N)c3c21 (centres undefined)	2.2	4	-1	9	4044	-1	-1
CCCn1c(SCC(=O)Nc2ccccc2Oc2ccccc2)n[nH]c1=O	-3.7	4	x	x	2118	-12	-19
CCOC(=O)Cc1csc(NC(=O)CSc2nnc(C(C)C)n2CC)n1	0.7	0	1	11	4359	1	-1
O=C(Nc1ccccc1Cl)C1CC(=O)N(Cc2ccco2)C1 (centres undefined)	4.9	x	-3	-6	3058	4	-12
O=C(NCCNC(=O)c1ccccc1F)c1ccccn1	4.6	1	3	2	5078	0	-11
CC1(C)CCSC(/C=C/c2ccccc2)=N1	3.5	36	21	29	3927	7	x
S=C(NCCc1c[nH]c2ccccc12)NC1CC1	4.0	0	-2	6	4640	8	-16
O=C(O)Cc1ccc(NC(=O)c2cccc(NC(=O)c3ccco3)c2)cc1	1.4	-2	-4	-7	3267	1	-7
CC1CN(Cc2nc3c(c(=O)n(C)c(=O)n3C)n2CCN2CCOCC2)CC(C)O1 (centres undefined)	-0.5	-17	1	6	4105	-5	-12
Cc1ccc(-c2cn(-c3ccc(OC(F)F)cc3)c3[n+]2CCCCC3)cc1	2.0	16	24	0	4681	12	-2
Cc1ccc(-c2nc3ncccn3c2Nc2ccc3c(c2)OCCO3)o1	-3.2	11	x	x	4480	-1	-8
O=C(NCCO)C(=O)c1c(-c2ccccc2)cc2ccccn12	0.6	4	-3	20	4229	0	-14
CCc1ccc[n+](-c2[nH]c(=O)sc2C=N/N=C(\[O-])c2cccnc2)c1	-1.8	x	-9	1	x	1	x
CCN(CC)S(=O)(=O)c1cnccc1N1CCN(c2cccc(Cl)c2)CC1	6.9	4	4	6	1935	9	-19
COc1ccc(C2=NOC(Cn3nc(C(=O)O)cc3-c3ccccc3)C2)cc1 (centres undefined)	1.9	-1	-2	9	3310	-7	-8
O=C1c2cccnc2C(=O)N1C1CCCCC1	2.3	4	3	11	21393*	-5	-36
CS(=O)(=O)N(CC(=O)N1CCc2ccccc2C1)c1cccc([N+](=O)[O-])c1	1.2	-13	12	-7	3478	7	-18
Cc1cccc(C)c1NC1=NC(=S)N(c2ccc(N(C)C)cc2)C1(C)C	3.3	-13	x	x	3466	4	-13
Cn1c(=O)oc2cc(S(=O)(=O)NCCC(=O)NCc3ccc(F)cc3)ccc21	-0.8	3	-3	2	5535	1	-9
CCCCOC(=O)c1ccc(NC(=O)COC(=O)c2ccc3ncsc3c2)cc1	-0.5	x	4	8	6080	3	-19
Cc1ccc(N2C(=O)CSC2c2ccc3c(c2)OCO3)cc1 (centres undefined)	5.7	-8	9	10	2295	7	-14
CON=CCC(=O)c1cnc(-c2ccc(Cl)cc2)s1	6.1	x	20	8	x	88*	x

13 entries already listed, sorted by count of non-hydrogen atoms, falling.
SMILES	Sa RN4220 lethal	BJeLR lethal	Mtb hypoxia inh	Mtb hypoxia inh growth	Autofluor counter	ugtP null kill	PrP UTR inh
CC1CN(Cc2nc3c(c(=O)n(C)c(=O)n3C)n2CCN2CCOCC2)CC(C)O1 (centres undefined)	-0.5	-17	1	6	4105	-5	-12
CCCCOC(=O)c1ccc(NC(=O)COC(=O)c2ccc3ncsc3c2)cc1	-0.5	x	4	8	6080	3	-19
COc1ccc(C2=NOC(Cn3nc(C(=O)O)cc3-c3ccccc3)C2)cc1 (centres undefined)	1.9	-1	-2	9	3310	-7	-8
O=C(O)Cc1ccc(NC(=O)c2cccc(NC(=O)c3ccco3)c2)cc1	1.4	-2	-4	-7	3267	1	-7
Cc1cccc(C)c1NC1=NC(=S)N(c2ccc(N(C)C)cc2)C1(C)C	3.3	-13	x	x	3466	4	-13
CCc1ccc[n+](-c2[nH]c(=O)sc2C=N/N=C(\[O-])c2cccnc2)c1	-1.8	x	-9	1	x	1	x
O=C(NCCO)C(=O)c1c(-c2ccccc2)cc2ccccn12	0.6	4	-3	20	4229	0	-14
O=C(Nc1ccccc1Cl)C1CC(=O)N(Cc2ccco2)C1 (centres undefined)	4.9	x	-3	-6	3058	4	-12
O=C(NCCNC(=O)c1ccccc1F)c1ccccn1	4.6	1	3	2	5078	0	-11
CON=CCC(=O)c1cnc(-c2ccc(Cl)cc2)s1	6.1	x	20	8	x	88*	x
S=C(NCCc1c[nH]c2ccccc12)NC1CC1	4.0	0	-2	6	4640	8	-16
O=C1c2cccnc2C(=O)N1C1CCCCC1	2.3	4	3	11	21393*	-5	-36
CC1(C)CCSC(/C=C/c2ccccc2)=N1	3.5	36	21	29	3927	7	x

Next part
SMILES	Sa RN4220 lethal	BJeLR lethal	Mtb hypoxia inh	Mtb hypoxia inh growth	Autofluor counter	ugtP null kill	PrP UTR inh
O=C(CNC(=O)c1ccco1)OCC(=O)c1cccc2ccccc12	19	-17	7	6	2823	19	-11
C=CCOC(=O)C1=C[C@@H](c2coc3ccccc3c2=O)C[C@@H](OCCCCO)O1	-6.7	-4	3	-5	2924	3	-8
C[C@]1(O)CCC2C3CC[C@H]4C[C@@H](OC(=O)CNC(=O)CN)CC[C@]4(C)C3CC[C@@]21C (some centres undefined)	-5.5	x	12	5	3499	32	-10
CCOC(=O)c1cnc2c(CC)cccc2c1NCCCN1CCOCC1	3.1	19	5	2	4230	1	-20
CCN(CC)C(=O)c1ccc(NC(=O)c2cccc(F)c2)cc1	4.8	-1	4	15	20909*	-1	-25
CCCCN1C(=O)/C(=C\c2ccco2)C(=O)N(CCc2ccccc2)C1=O	1.9	-5	4	-10	3949	4	-13
CCOC(=O)c1cc(-c2ccccc2)sc1NC(=S)Nc1cccc(C)n1	-1.4	-2	5	-1	3224	-23	-26
Nc1ccc(Cl)c[n+]1Cc1cccc2cccnc12	5.4	12	10	14	4345	4	-1
Cc1ccc(C(=O)NC2CCC(C)CC2)o1 (centres undefined)	2.4	-8	x	x	x	8	-27
O=C(CC(c1ccco1)C1CCCCC1=O)c1ccccc1 (centres undefined)	9.3	-6	10	6	11433	4	-13
Cc1noc(C)c1NC(=O)N(C)CC1Oc2ccc(NC(=O)NC3CCCCC3)cc2C(=O)N(C(C)CO)CC1C (centres undefined)	1.7	x	1	7	x	2	x
Cc1oc2cc(OC(=O)c3ccco3)ccc2c(=O)c1-c1nc2ccccc2n1C	1.5	2	-1	-6	2477	4	-12
CCC1Nc2ncnc(N3CCCCC3)c2N(Cc2ccc(C)cc2)C1=O (centres undefined)	-1.2	x	-10	1	4096&5807	-7	-26
Cc1cc(C)cc(NC(=O)c2ccc(N3C(=O)C4CCCCC4C3=O)cc2)c1 (centres undefined)	-1.5	-1	1	6	6163	-9	4
COC(=O)c1ccc(NC(=S)NNC(=O)c2ccccc2)cc1	5.0	6	7	19	4127	-5	-13
O=[N+]([O-])c1ccccc1/C=C/C=N/Nc1nc(N2CCCCC2)nc(N2CCCCC2)n1	x	-3	x	x	2563	x	-54

Profiles, looked up by structure.
CCCCN1C(=O)/C(=C\c2ccco2)C(=O)N(CCc2ccccc2)C1=O across the screens: Sa RN4220 lethal = 1.9; BJeLR lethal = -5; Mtb hypoxia inh = 4; Mtb hypoxia inh growth = -10; Autofluor counter = 3949; ugtP null kill = 4; PrP UTR inh = -13
CC1CCCc2sc3ncn(N)c(=N)c3c21 (centres undefined) across the screens: Sa RN4220 lethal = 2.2; BJeLR lethal = 4; Mtb hypoxia inh = -1; Mtb hypoxia inh growth = 9; Autofluor counter = 4044; ugtP null kill = -1; PrP UTR inh = -1
